SARS PLpro yeast: SARS-CoV PLP inhibition in yeast; S. cerevisiae expressing SARS-CoV PLpro, growth rescue; control for the full effect not named in the record; Potency, µM (doses to about 32.9 µM), without a hit: at the highest dose activity, positive = growth rescue; 330,000 tested, 0.19% active; AID 485353; also: 0% is about no effect; nearly all actives have a fitted effect of over 55% in size; growth read by luminescence after 48 h
Marburg entry inh: Marburg virus entry inhibition; Marburg virus pseudotyped entry inhibition, cell reporter; control for the full effect not named in the record; about a third of the inactives were read at about 46 µM; Potency, µM (series often up to 37.8 µM), for inactives: top-dose activity change, negative = inhibition, most hits filed as inhibitors; 300,000 tested, 1.8% active; AID 540276; active = well fitted inhibition curve with a large enough effect; inconclusive = small, poorly fitted or top-dose-only effect, or effect the other way; inactive = flat fitted curve, though single readings scatter; tested in HEK293 cells; about a fifth of its hits are not listed in these tables; also: % is scaled to controls: 0 for no effect and ±100 for the full control effect; luciferase read-out
LASV entry inh: inhibitors of Lassa virus binding or cell entry. Potency, µM (doses to about 37.9 µM), for the others: top-dose activity change, negative = inhibition, usual class: inhibitors. Lassa virus pseudotype entry inhibition, cell reporter; control for the full effect not named in the record. 300,000 tested, 1.2% active; active means well fitted inhibition curve with a large enough effect; inconclusive means small, poorly fitted or top-dose-only effect, or effect the other way; inactive means flat fitted curve, though single readings scatter; tested in HEK293 cells; also: % is scaled to controls: 0 for no effect and ±100 for the full control effect; nearly all actives have a fitted effect of over 50% in size; luciferase read-out
RE007 growth inh: less growth of the S. pombe RE007 Vpr strain | 360,000 tested, 0.21% active | Potency, µM (titrated, usually from 92.2 µM), for inactives: top-dose activity change, negative = less growth | S. pombe RE007 Vpr strain, BacTiter-Glo ATP luminescence, 24 h; control for the full effect not named in the record; active = well fitted falling curve with a large enough effect; inconclusive = small, poorly fitted or top-dose-only effect; inactive = no such curve, though single readings can be large or run the other way;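 also: % is scaled to controls: 0 for no effect and ±100 for the full control effect; nearly all actives have a fitted effect of over 50% in size; the assay follows cell death caused by Vpr and the record does not say whether a fall means rescue or toxicity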
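Fission yeast RE007 carrying one integrated HIV-1 vpr copy, seeded at OD 0.01 in PMG+AL medium with 23 nL pinned compound. Grown 24 h at 30 degrees; viability read by BacTiter-Glo luminescence after 5 min.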
Cruzain inh Det: blocks cruzain activity in presence of Triton detergent. P25779. purified cruzain, Z-FR-AMC fluorescence, 0.01% Triton. Potency, µM, without a hit: max response, negative = inhibition, most hits filed as inhibitors. 200,000 tested, 0.43% active; active = well fitted curve in the direction sought with a large enough effect; inconclusive = small, poorly fitted or top-dose-only effect, or another doubt; inactive = no such curve, though single readings can be large; an effect the other way counts as inactive or inconclusive;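 also: plate controls were neutral wells for no effect and buffer without enzyme for full effect; nearly all actives have a fitted effect of over 40% in size; top concentration of the series not given in the record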
Target sequence (P25779 123-467 limits assumed): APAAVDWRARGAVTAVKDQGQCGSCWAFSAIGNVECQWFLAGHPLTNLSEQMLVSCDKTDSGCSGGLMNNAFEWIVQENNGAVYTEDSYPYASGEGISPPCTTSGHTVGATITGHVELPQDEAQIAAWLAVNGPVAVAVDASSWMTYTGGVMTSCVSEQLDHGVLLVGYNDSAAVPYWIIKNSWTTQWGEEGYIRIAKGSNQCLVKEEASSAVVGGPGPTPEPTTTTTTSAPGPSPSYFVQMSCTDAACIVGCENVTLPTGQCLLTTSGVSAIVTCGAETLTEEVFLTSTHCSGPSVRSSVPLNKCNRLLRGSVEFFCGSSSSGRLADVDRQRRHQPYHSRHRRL
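In this qHTS format, compounds are incubated with 1.5 nM cruzain for 15 min at room temperature before 2 uM Z-FR-AMC is added. Release of AMC is followed at 360/450 nm, and progress is taken as the 60 s fluorescence difference.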
2A StopGo: lowers the luciferase signal of an FMDV 2A StopGo reporter | 410,000 tested, 1.2% active | Potency, µM (doses to about 57.9 µM), inactives show top-dose signal change, negative = less light | human cells with a luciferase reporter of 2A StopGo recoding; control for the full effect not named in the record; active = well fitted falling curve with a large enough effect; inconclusive = small, poorly fitted or top-dose-only effect; inactive = no such curve, though single readings can be large or run the other way; tested in HEK293T cells; also: % is scaled to controls: 0 for no effect and ±100 for the full control effect; nearly all actives have a fitted effect of over 45% in size; luciferase light after 4 h
Cruzain noTriton: blocks cruzain activity in detergent-free assay; P25779; purified cruzain, Z-FR-AMC fluorescence, no detergent; Potency, µM, inactives show max response, negative = inhibition, usual class: inhibitors; 200,000 tested, 2.3% active; active = well fitted curve in the direction sought with a large enough effect; inconclusive = small, poorly fitted or top-dose-only effect, or another doubt; inactive = no such curve, though single readings can be large; an effect the other way counts as inactive or inconclusive;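 also: plate controls were enzyme without inhibitor for no effect and buffer without enzyme for full effect; nearly all actives have a fitted effect of over 40% in size; top concentration of the series not given in the record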
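Detergent-free condition (0.00005% Triton X-100) in acetate buffer pH 5.5 with DTT. 1.5 nM enzyme and compound were pre-mixed 15 min, then 2 uM Z-FR-AMC substrate added; reaction progress from fluorescence change between first and third reads (60 s).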
NS1 function inh: influenza NS1 inhibition | Potency, µM (top dose mostly 46.1 µM), without a hit: top-dose activity, positive = more growth | AID 2326 | S. cerevisiae slowed by influenza A NS1, growth recovery by OD600 | 270,000 tested, 0.4% active; also: actives are rising curves; nearly all actives have a fitted effect of over 50% in size
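Recovery from NS1-induced slow growth read by OD600 in budding yeast switched to galactose assay medium (pH 6.0, -URA) at 1:100 dilution. Compound 23 nl per well; the matching strain lacking NS1 serves as control.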
Active calls of the source: *; u = inconclusive; x = no result given; & = joins results of further samples; [ ] = dose if it differs, or a comment. Unless noted, calls follow the shape of the dose curve; as a rule, active means well fitted rising curve with a large enough effect; inconclusive means small, poorly fitted or top-dose-only effect; inactive means no such curve, though single readings can be large or run the other way. Potency is read from the fitted curve at half-maximal effect.

SMILES	SARS PLpro yeast	Marburg entry inh	LASV entry inh	RE007 growth inh	Cruzain inh Det	2A StopGo	Cruzain noTriton	NS1 function inh
CCC1(C)Cc2c(sc3nc(SCC(=O)c4ccccc4)[nH]c(=O)c23)CO1 (configuration not stated)	0%	-3%[46.1 µM]	17%	7%	x	-22%	x	-1%
CCOc1ccc(NC(=O)CN2C(=O)COc3ccc(Cl)cc32)cc1	u	x	x	-5%	0.9%	-5%	-3%	-3%
O=C(CCC1CCCN(C(=O)c2cc(C3CC3)[nH]n2)C1)N1CCN(c2ccccn2)CC1 (configuration not stated)	0%	-14%[46.1 µM]	4%	0%	x	-25%	x	10%
Nc1ccc(C(=O)OCc2nc3ccccc3[nH]2)cc1	-1%	4%	18%	8%	3.5%	15%	7%	-13%
CCn1ncc(CNC(=O)c2cccc([N+](=O)[O-])c2)c1C	22%	x	x	x	3.9%	x	10%	1%
Cc1cc(C(=O)N/N=C/c2ccco2)c2ccccc2n1	8%	-12%	-25%	-6%	-1.3%	-15%	-2%	7%
CC(C)CN(C(=O)CSc1nc(N)cc(N)n1)C1CCS(=O)(=O)C1 (configuration not stated)	4%	2%	21%	2%	x	-5%	x	x
COC(=O)c1[nH]c2cccc(C)c2c1NC(=O)CN1CCCc2ccccc21	10%	-5%	5%	-1%	-8.9%	8%	u	-137%
CC(=O)C1=C(c2cccc([N+](=O)[O-])c2)N(C(C)=O)n2c(C)nnc2S1	-3%	u	u	-3%	x	u	x	x
CCn1c(=O)c2cc(C(=O)NCCCOC)sc2c2ccccc21	1%	-14%&-14%[46.1 µM]	-37%[46.1 µM]	-7%	-9.3%	-2%&3%	u	-12%

Three entries from above, arranged by SMILES length, ascending:
SMILES	SARS PLpro yeast	Marburg entry inh	LASV entry inh	RE007 growth inh	Cruzain inh Det	2A StopGo	Cruzain noTriton	NS1 function inh
Cc1cc(C(=O)N/N=C/c2ccco2)c2ccccc2n1	8%	-12%	-25%	-6%	-1.3%	-15%	-2%	7%
CCn1ncc(CNC(=O)c2cccc([N+](=O)[O-])c2)c1C	22%	x	x	x	3.9%	x	10%	1%
CCC1(C)Cc2c(sc3nc(SCC(=O)c4ccccc4)[nH]c(=O)c23)CO1 (configuration not stated)	0%	-3%[46.1 µM]	17%	7%	x	-22%	x	-1%

Further compounds
SMILES	SARS PLpro yeast	Marburg entry inh	LASV entry inh	RE007 growth inh	Cruzain inh Det	2A StopGo	Cruzain noTriton	NS1 function inh
Cc1c(Br)c(=O)[nH]c(=O)n1COCc1ccccc1	7%	u	-1%	7%	2.2%	2%	-7%	3%
Cc1ccc(CCNS(=O)(=O)c2ccc3c(c2)N(C)CCO3)cc1	-3%	x	x	4%	x	64%[activator]	x	-28%
O=C(N/N=C/c1cccc(O)c1)c1ccc(NC(=O)C2CCCCC2)cc1	1%	8%[46.1 µM]	18%[46.1 µM]	-7%	x	-8%	x	-1%
CCN(Cc1nc(-c2ccc(OC)cc2)oc1C)S(=O)(=O)c1ccc(C)cc1	x	x	u	x	-3.7%	-22%	6%	x
O=[N+]([O-])c1ccc(Nc2ccc(F)cc2)nc1	7%	u	16%	-11%	-0.5%	-2%	12%	-15%
Cc1nc2ccc(Cc3ccc4nc(C)[nH]c4c3)cc2[nH]1	9%	-22%	-4%	-1%	0.7%	-7%	15%	8%
CCn1c(Cc2ccccc2)nnc1SCC(=O)Nc1ccc2c(c1)OCCO2	4%	24%	7%	2%	-0.1%	3%	-10%	-5%
CCOc1ccc(C(=O)NCC(=O)NCCCSc2ccccc2)cc1OCC	1%	-6%	-1%	14%	x	-23%	x	17%
c1ccc(-c2nc3c4ccccc4ccn3c2CN2CCOCC2)cc1	-3%	x	x	-28%	x	20%	x	-1%
Nc1ccc(C(=O)OCC(=O)N2CCc3ccccc3C2)cc1[N+](=O)[O-]	-14%	24%	u	-3%	-12%	-6%	32µM*	-21%
COc1ccc2c(C)c(C(=O)N3CC[C@@H](N4CCC(O)CC4)[C@H](O)C3)oc2c1	1%	x	x	-4%	x	-11%	x	-4%
O=C(CSc1ncnc2sc3c(c12)CCCC3)N1CCC(c2noc3ccc(F)cc23)CC1	8%	u	-25%	10%	2.6%	3%	16µM*	3%
O=C1NC(Cc2ccccc2)C(=O)Nc2ccc(Br)cc21 (configuration not stated)	-5%	x	x	12%	x	-10%	x	3%
COc1ccc(-c2cc(C(=O)N3CC4(C)CC3CC(C)(C)C4)no2)cc1 (configuration not stated)	1%	-14%	u	5%	-9.9%	7%	1%	-51%
C/C(=N\NS(=O)(=O)c1cccc([N+](=O)[O-])c1)c1cc2ccccc2o1	-4%	19%	6%	6%	-14%	49%[activator]	u	-11%
CCn1cc([N+](=O)[O-])c(C(=O)Nc2c(C)nn(Cc3c(F)c(F)c(F)c(F)c3F)c2C)n1	-3%	-32%	3%	-4%	-1.6%	-10%	-21%	-9%
CC(C)(Oc1ccc(Cl)cc1)C(=O)NC1CCN(Cc2ccccc2)CC1	-3%	u	u	-15%	x	-11%	x	x
C=CCOc1ccc2ccccc2c1/C=N/O	-13%	10%	7%	32µM*	-2.2%	-2%	0%	-95%
CN(C)S(=O)(=O)c1cccc(C(=O)OCC(=O)c2ccc3c(c2)NC(=O)CO3)c1	2%	13%	-16%	10%	4.6%	x	6%	u
Cc1ccc(N(C(=O)c2snc(C(N)=O)c2N)C(C(=O)NCC2CCCO2)c2ccc(C)o2)c(C)c1 (configuration not stated)	3%	-14%[46.1 µM]	u	1%	x	-22%	x	5%

Two entries from above, bar-delimited.
canonical_smiles | SARS PLpro yeast | Marburg entry inh | LASV entry inh | RE007 growth inh | Cruzain inh Det | 2A StopGo | Cruzain noTriton | NS1 function inh
COc1ccc2c(C)c(C(=O)N3CC[C@@H](N4CCC(O)CC4)[C@H](O)C3)oc2c1 | 1% | x | x | -4% | x | -11% | x | -4%
CN(C)S(=O)(=O)c1cccc(C(=O)OCC(=O)c2ccc3c(c2)NC(=O)CO3)c1 | 2% | 13% | -16% | 10% | 4.6% | x | 6% | u

Later entries
SMILES	SARS PLpro yeast	Marburg entry inh	LASV entry inh	RE007 growth inh	Cruzain inh Det	2A StopGo	Cruzain noTriton	NS1 function inh
CCOC(=O)c1cccc(NC(=O)CSc2nnc(-c3cccnc3)n2CC)c1	2%	-20%&-20%	-11%	15%	6.9%	5%	-10%	-8%
Cc1ccccc1N1CCN(C(=S)c2ccc(-c3ccc([N+](=O)[O-])cc3)o2)CC1	1%	u	-6%	9%	x	-14%	x	-2%
CCCOC(=O)Cc1n[nH]c(=O)[nH]c1=O	-2%	u	5%	-2%	3.0%	-13%	3%	-6%
O=C(Cc1ccc(Cl)cc1)N/N=C1\CCCc2ccccc21	6%	-22%	u	-13%	1.8%	x	-7%	-2%
Cn1ncc(Cl)c1C(=O)NNC(=O)Nc1cccc2ccccc12	2%	1%[46.1 µM]	-4%[46.1 µM]	-2%	x	-3%	x	10%
COc1ccc(CNC(=O)/C=C/c2ccc(S(=O)(=O)NCc3ccco3)cc2)cc1OC	-3%	u	-20%	1%	-3.2%	-26%	7%	0%
COc1cc2cc(C(=O)O)n(C)c2c(OC)c1OC	9%	-2%	22%	0%	-5.8%	-8%	-6%	-1%
CC(=O)c1cn(-c2ccc(Cl)cc2)c(=O)n(Cc2ccc(Br)cc2)c1=O	-5%	-3%[46.1 µM]	-17%[46.1 µM]	-4%	x	-17%	x	x
CCOc1ccc(C(CC(=O)O)NC(=O)Cc2ccccc2)cc1OC (configuration not stated)	-2%	x	x	1%	x	-11%	x	4%
Cc1[nH][nH]c(=O)c1N=Nc1ccccc1	5%	u	25%	-3%	-1.9%	27%	-5%	2%
Cc1ccc(-c2nnn(CC(=O)N(CC(=O)NC3CCCC3)c3ccc(F)c(Cl)c3)n2)o1	-3%	u	-14%	8%	1.7%	-9%	-27%	0%
COc1ccccc1-c1cc(N)n(S(=O)(=O)c2ccc(F)c(C)c2)n1	8%	x	x	-2%	-7.1%	-29%	-7%	-67%
Fc1ccccc1CN1CCCC(NC2CCC2)C1 (configuration not stated)	1%	x	x	0%	x	-11%	x	17%
Cc1cc(C)cc(NC(=O)CCc2c(C)nc3nc(CNC(=O)c4cccc(F)c4)nn3c2C)c1	x	2%[46.1 µM]	4%[46.1 µM]	x	-6.3%	-21%	u	x
COc1ccc(S(=O)(=O)N2CCSCC2)cc1	3%	x	x	20%	x	-8%	x	-11%
Cc1ccc(-n2c(SCc3nc(-c4ccccc4C)no3)nnc2-c2ccncc2)cc1C	x	u	u	x	-2.6%	0%	-2%	x
Cc1ccc(NC(=O)c2ccccc2SCC(=O)N2CCCC2)cc1S(=O)(=O)N(C)C	-8%	u	-15%	-9%	x	-8%	x	-2%
COC(=O)CN1C(=O)CSc2ncccc21	-1%	1%	1%	3%	6.4%	-16%	-1%	u
C=C1C(=O)OC2C=C(CO)C3OC3C3OC3(C)CC(OC(=O)/C(=C/C)COC(C)=O)C12 (configuration not stated)	x	2.5µM*	u	-4%	x	7.9µM*	x	x
COc1ccc([N+](=O)[O-])cc1NC(=O)C(C)OC(=O)Cc1ccc(OC)c(OC)c1 (configuration not stated)	-3%	u	0%	1%	x	-25%	x	x
COC(=O)c1ccccc1NC(=O)CCCn1nc(C)c2sc3ccccc3c2c1=O	x	u	10%[46.1 µM]	x	-3.4%	-23%	-9%	x
COc1cc(C(=S)N2CCCC2)ccc1O	2%	29%	-5%	-1%	-2.9%	-7%	-7%	2%
CCOc1ccc(CCNC(=O)c2cc3c(-c4cccc(OC)c4)nn(C)c3s2)cc1OCC	x	u	u	x	-2.3%	u	28%	x
CC(C)(C)c1ccc(S(=O)(=O)Nc2ccc(O)c(Sc3nc4ccccc4s3)c2)cc1	x	u	u	x	-4.8%	9%	4%	x
Cc1cccc(CN2C(=O)c3ccccc3S(=O)(=O)c3ccc(C(=O)N(C)Cc4ccccc4)cc32)c1	x	u	u	x	-0.1%	15%	-13%	x
